# Compound activity (PubChem)
# RE007 growth inh = less growth of the S. pombe RE007 Vpr strain; actives 0.21% (n = 360,000); S. pombe RE007 Vpr strain, BacTiter-Glo ATP luminescence, 24 h; control for the full effect not named in the record; Potency, µM (titrated, usually from 92.2 µM), for inactives: at the highest dose activity change, negative = less growth; active = well fitted falling curve with a large enough effect; inconclusive = small, poorly fitted or top-dose-only effect; inactive = no such curve, though single readings can be large or run the other way;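 further: on the % scale 0 is the no-effect control and ±100 the full control effect; nearly all actives have a fitted effect of over 50% in size; the assay follows cell death caused by Vpr and the record does not say whether a fall means rescue or toxicity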
#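 Fission yeast RE007 carrying one integrated HIV-1 vpr copy, seeded at OD 0.01 in PMG+AL medium with 23 nL pinned compound. Grown 24 h at 30 degrees; viability read by BacTiter-Glo luminescence after 5 min.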
# SARS PLpro yeast = blocks SARS-CoV papain-like protease in a yeast assay | S. cerevisiae expressing SARS-CoV PLpro, growth rescue; control for the full effect not named in the record | AID 485353 | Potency, µM (highest dose often 32.9 µM), inactives show at the highest dose activity, positive = growth rescue | actives 0.19% (n = 330,000); active means well fitted rising curve with a large enough effect; inconclusive means small, poorly fitted or top-dose-only effect; inactive means no such curve, though single readings can be large or run the other way; further: 0% is about no effect; nearly all actives have a fitted effect of over 55% in size; growth read by luminescence after 48 h
# LASV entry inh = inhibitors of Lassa virus binding or cell entry. Lassa virus pseudotype entry inhibition, cell reporter; control for the full effect not named in the record. Potency, µM (doses to about 37.9 µM), inactives show at the top dose activity change, negative = inhibition, hits mostly inhibitors. actives 1.2% (n = 300,000). AID 540256; active means well fitted inhibition curve with a large enough effect; inconclusive means small, poorly fitted or top-dose-only effect, or effect the other way; inactive means flat fitted curve, though single readings scatter; tested in HEK293 cells; further: on the % scale 0 is the no-effect control and ±100 the full control effect; nearly all actives have a fitted effect of over 50% in size; luciferase read-out
# StopGo reporter = FMDV 2A StopGo reporter, luciferase signal. actives 1.2% (n = 410,000). Potency, µM (highest dose often 57.9 µM), inactives show top-dose signal change, negative = less light. human cells with a luciferase reporter of 2A StopGo recoding; control for the full effect not named in the record; active = well fitted falling curve with a large enough effect; inconclusive = small, poorly fitted or top-dose-only effect; inactive = no such curve, though single readings can be large or run the other way; tested in HEK293T cells; further: on the % scale 0 is the no-effect control and ±100 the full control effect; nearly all actives have a fitted effect of over 45% in size; luciferase light after 4 h
# NS1 function inh = blocks influenza NS1 protein function; S. cerevisiae slowed by influenza A NS1, growth recovery by OD600; Potency, µM (series often up to 46.1 µM), inactives show top-dose activity, positive = more growth; actives 0.4% (n = 270,000); active means well fitted rising curve with a large enough effect; inconclusive means small, poorly fitted or top-dose-only effect; inactive means no such curve, though single readings can be large or run the other way; further: nearly all actives have a fitted effect of over 50% in size
#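 A cell-based growth assay was used: compounds that relieve NS1-induced slow growth of budding yeast raise OD600. Assay medium was yeast nitrogen base with ammonium sulphate and -URA supplement, pH 6.0, with 2% galactose.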
# Marburg entry inh = Marburg virus entry inhibition | actives 1.8% (n = 300,000) | Marburg virus pseudotyped entry inhibition, cell reporter; control for the full effect not named in the record; about a third of the inactives were read at about 46 µM | Potency, µM (doses to about 37.8 µM), inactives show top-dose activity change, negative = inhibition, hits mostly inhibitors; active = well fitted inhibition curve with a large enough effect; inconclusive = small, poorly fitted or top-dose-only effect, or effect the other way; inactive = flat fitted curve, though single readings scatter; tested in HEK293 cells; about a fifth of its hits are not listed in these tables; further: on the % scale 0 is the no-effect control and ±100 the full control effect; luciferase read-out
# Cruzain noTriton = cruzain (T. cruzi) inhibition without detergent; P25779; purified cruzain, Z-FR-AMC fluorescence, no detergent; Potency, µM, without a hit: max response, negative = inhibition, usual class: inhibitors; actives 2.3% (n = 200,000); AID 1476;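 further: plate controls were enzyme without inhibitor for no effect and buffer without enzyme for full effect; nearly all actives have a fitted effect of over 40% in size; top concentration of the series not given in the record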
# Target sequence (P25779 123-467 limits assumed): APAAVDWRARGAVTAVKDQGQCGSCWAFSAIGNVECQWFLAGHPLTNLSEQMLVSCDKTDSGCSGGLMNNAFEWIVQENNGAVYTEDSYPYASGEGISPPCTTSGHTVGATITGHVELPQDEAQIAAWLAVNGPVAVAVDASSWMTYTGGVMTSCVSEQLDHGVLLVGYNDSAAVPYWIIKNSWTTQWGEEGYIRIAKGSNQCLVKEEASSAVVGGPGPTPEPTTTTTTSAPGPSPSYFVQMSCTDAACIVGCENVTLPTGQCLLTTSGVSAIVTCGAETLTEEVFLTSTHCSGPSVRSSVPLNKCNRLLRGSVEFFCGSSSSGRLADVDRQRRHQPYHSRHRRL
#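 Purified cruzain at 1.5 nM, pre-incubated 15 min with compound at room temperature in 100 mM sodium acetate pH 5.5, 5 mM DTT, 0.00005% Triton X-100. Reaction started with 2 uM Z-FR-AMC; AMC fluorescence increase over 60 s gives rate.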
# Cruzain Triton = cruzain (T. cruzi) inhibition with detergent | purified cruzain, Z-FR-AMC fluorescence, 0.01% Triton | Potency, µM, for the others: max response, negative = inhibition, actives largely listed as inhibitors | actives 0.43% (n = 200,000) | AID 1478;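 further: plate controls were neutral wells for no effect and buffer without enzyme for full effect; nearly all actives have a fitted effect of over 40% in size; top concentration of the series not given in the record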
#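 Detergent-containing arm of a paired screen for aggregation-based inhibition: 0.01% Triton X-100 present. Cruzain at 1.5 nM cleaved 2 uM Z-FR-AMC at pH 5.5 with 5 mM DTT; AMC fluorescence gain over 60 s measured activity.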
# * hit, by the source's call; ? = inconclusive; · = not tested or not shown; & = joins results of further samples; [ ] = dose if it differs, or a comment. Unless noted, the call rests on the fitted dose curve; in most records, active means well fitted curve in the direction sought with a large enough effect; inconclusive means small, poorly fitted or top-dose-only effect, or another doubt; inactive means no such curve, though single readings can be large; an effect the other way counts as inactive or inconclusive. Potency means the concentration at half of the fitted maximal effect.
SMILES,RE007 growth inh,SARS PLpro yeast,LASV entry inh,StopGo reporter,NS1 function inh,Marburg entry inh,Cruzain noTriton,Cruzain Triton
COC(=O)c1ccc(-n2cc(-c3ccc(OC)cc3)[nH]c2=S)cc1,14%,3%,5%,17%,-1%,?,-19%,-2.6%
COc1cc(SC)ccc1C(=O)Nc1ccncc1,21%,-4%,·,16%,-8%,·,·,·
Cc1ccccc1OCC(=O)Nc1ccc([N+](=O)[O-])cc1,18%,23%,0%,5%,2%,·,·,·
CCOCCCNC(=O)c1cn(CC)c2ccc(S(=O)(=O)N(C)C3CCCCC3)cc2c1=O,6%,-3%,·,-10%,-17%,·,·,·
Cc1ccc(C)c(OCc2ccc(C(=O)NN)o2)c1,-3%,-2%,·,-10%,7%,·,·,·
O=c1[nH]c2ccccc2nc1/C=C/c1ccc(F)cc1,-6%,-1%,?,18%,?,?,·,·
CC(=O)c1ccc(NC2CC(O)C(O)CO2)cc1 (stereo not given),-5%,-8%,-1%,-3%,-4%,-14%,-8%,-4.7%
COc1ccc(CNC(=S)NCc2ccc(F)cc2)cc1OC,3%,1%,-14%[46.1 µM],-14%,-10%,-3%[46.1 µM],·,·
CCn1c(C)nc2cc(C(=O)N/N=C/c3ccccc3C)ccc21,3%,0%,?,21%,-4%,?,·,·
COC(=O)c1cnn(-c2nc3c(C)cccc3s2)c1C,-2%,5%,-6%,-24%,-12%,13%,?,0.9%
CCc1c(C(=O)NNC(=S)NCc2ccccc2)csc1C,9%,-3%,-21%,20%,7%,?,-18%,-1.3%
NC(=O)N/N=C/c1ccccc1OCc1cccc2ccccc12,-13%,-9%,·,-2%,9%,·,·,·
CCC(=O)Nc1ccc(C(=O)NNC(=O)c2cc(OC)c(OC)c(OC)c2)cc1,-11%,1%,-1%,-9%,4%,-22%[46.1 µM],·,·
O=C(N/N=C/c1ccc(OC(F)F)cc1)c1cc[n+]([O-])cc1,13%,9%,13%,-6%,1%,?,·,·
CC(C)CN1C(=O)c2ccc(C(=O)NCc3ccccn3)cc2C1=O,12%,5%,24%[46.1 µM],17%,4%,-26%[46.1 µM],·,·
O=C(Cn1ccc([N+](=O)[O-])n1)NCCc1c[nH]c2ccccc12,-7%,2%,-12%[46.1 µM],1%,·,-13%[46.1 µM],·,·
CC(=O)Nc1ccc(S(=O)(=O)N2CCN(c3ccc(C)c(Cl)c3)CC2)cc1,4%,12%,·,?,-8%,·,-7%,0.5%
CNC(=S)Nc1cccc2[nH]ncc12,8%[3.69 µM],2%,-3%,7%,11%,-17%,-1%,3.2%
N#CC1(NC(=O)Cn2ncc(Cl)c(Cl)c2=O)CCCCC1,27%,-1%,?,?,·,?,·,·
COC(=O)COc1ccc(S(=O)(=O)N2CCc3ccccc3C2)cc1C,6%,-7%,-2%,·,2%,1%,8%,-2.9%
CCOc1ccc(Br)cc1C1C(C(=O)OC)=C(C)NC2=C1C(=O)c1ccccc12 (stereo not given),·,·,0%[46.1 µM],?,·,-7%[46.1 µM],-2%,-2.5%
COc1ccc(N2CC(C(=O)NC3CC(C)(C)NC(C)(C)C3)CC2=O)cc1 (stereo not given),-9%,-4%,·,-11%,-3%,·,-13%,4.6%
CCOc1ccc(C(=O)Nc2cc(OC)ccc2OC)cc1,-13%,1%,20%,·,-49%,2%,-8%,-4.8%
CC(C)CCn1c(N)c(C(=O)OCC2CCCO2)c2nc3ccccc3nc21 (stereo not given),-12%,-9%,?,-16%,-209%,?,?,-16%
CCCN1C(=O)/C(=C/c2ccncc2)SC1=S,2%,-39%,0%,0%,-12%,17%,14%,-8.3%
CCCC(=O)Nc1cccc(-c2cn3cccnc3n2)c1,-3%,1%,?,8%&19%,·,?,-14%,-3.9%
CC(C(=O)N1c2ccccc2Sc2ccccc21)n1nnc(-c2cccs2)n1 (stereo not given),16%,-8%,9%,·,?,15%,?,-0.9%
COc1ccc(NC(=O)C2=C(C)C(=O)OC23CCC(C)CC3)cc1Cl (stereo not given),-14%,-10%,?,-19%,3%,?,3%,-5.9%
CCOc1cc(-c2cc(-c3ccc(C)o3)nc(N)c2C#N)ccc1O,4%,-14%,?,-21%,-1%,?,-9%,0.8%
CC(NC(=O)[C@H](C)N1C(=O)N2CCc3c([nH]c4ccccc34)[C@@]2(C)C1=O)c1ccccc1 (stereo not given in full),-10%,6%,·,?,7%,·,·,·
Fc1cc(F)c2nc(Nc3nc4cc5c(cc4s3)OCO5)sc2c1,-3%,-14%,15%,-13%,-5%,?,?,-5.4%
O=C(NC1CCCCCC1)c1c(O)nc2sccn2c1=O,?,-40%,15%,19%,·,25%,·,·
Cc1nc2oc3ccc(Cl)cc3c(=O)c2cc1C(=O)O,-12%,-2%,5%,73%[activator],1%,19%,·,·
Cc1ccc(NC(=O)c2cn(CCC#N)nc2-c2cccs2)c([N+](=O)[O-])c1,-3%,9%,2%,-6%,5%,?,21%,2.0%
COc1cc(C(=O)N(CCc2ccccc2)C2=CC3CCC(C2)N3C)cc(OC)c1OC (stereo not given),7%,-12%,11%,-12%,-1%,-39%,-8%,1.4%
Cc1sc2nc(SCC(=O)N3CCN(CCO)CC3)n(-c3ccccc3)c(=O)c2c1C,-6%,-4%,?,·,-7%[9.22 µM],1%&-11%,-5%,-3.1%
Nc1ccc(N2CCCCC2)c2nonc12,-8%,1%,·,23%,1%,·,·,·
CCN(CC)C(=O)c1ccc(NC(=O)c2sccc2-c2ccccc2)cc1,4%,·,-23%,0%,-3%,-19%,·,·
CC(=O)Nc1ccc(NC(=O)COC(=O)c2cc(S(=O)(=O)N(C)C)ccc2N2CCCC2)cc1,-10%,-4%,-4%,-17%,·,13%,·,·
O=C(CCCCCBr)N1CCC(CC2CC(c3cccc(Br)c3)=NO2)(C(=O)NCC2CCCCC2)CC1 (stereo not given),16%,-8%,·,-6%,-29%,·,·,·
Cc1cccc2sc(N(Cc3cccnc3)C(=O)Cc3ccccc3)nc12,·,·,?,16%,·,·,1%,-6.1%
Cc1oc2c(C)c(O)ccc2c(=O)c1-c1nncn1-c1ccccc1,-14%,0%,·,0%,4%,·,·,·
COC(=O)c1sc(Nc2ccccc2)nc1C,-9%,?,7%,·,-87%,7%,1%,-1.9%
O=C(Nc1ccccc1[N+](=O)[O-])c1ccc(S(=O)(=O)N2CCCC2)cc1,-16%,0%,-23%[46.1 µM],-22%,9%,11%[46.1 µM],·,·
CCOc1ccccc1N1CC(C(=O)NCCc2ccc(S(N)(=O)=O)cc2)CC1=O (stereo not given),-18%,4%,?,-20%,?,4%,8%,6.2%
COc1ccc(NS(=O)(=O)c2cn(C)cn2)c(OC)c1,-3%,17%,·,0%,-1%,·,·,·
CCC(C)[C@H](NS(=O)(=O)c1ccc(C)cc1)C(=O)N1CCC(C(=O)N[C@@H](Cc2ccccc2)C(=O)O)CC1 (stereo not given in full),-3%,1%,2%[46.1 µM],2%,16%,-14%[46.1 µM],·,·
COc1ccccc1NC(=O)Oc1ccc(NC(=O)c2ccco2)cc1,-9%,-5%,15%,11%,-32%,3%,6%,6.5%
O=c1c2ccccc2n2c(-c3cccc(F)c3)nnc2n1Cc1ccccc1,-1%,17%,3%[46.1 µM],3%&-18%,3%,-22%[46.1 µM],-9%&11%,-2.3%&-3.2%
COc1ccc(NC(=O)c2ccco2)cc1NC(=O)c1cc2ccccc2o1,-14%,-5%,-7%,?,-16%,-33%,13%,-6.6%
CC1CCCN(c2nc(-c3ccccc3O)nc3ccccc23)C1 (stereo not given),·,·,2%[46.1 µM],-26%,·,?,9%,-1.7%
CCOc1ccccc1C1NC(=O)NC(C)=C1C(=O)OC1CCCC1C (stereo not given),4%,1%,?,-23%,-22%,?,2%,-7.4%
c1ccc(-n2nc3c(ccc4cnnc43)[nH]2)cc1,-11%,-22%,12%,13%,-51%,?,7%,9.4%
Cc1cc(C)nc(Nc2nc(C)c3cc4c(cc3n2)OCO4)n1,-9%,5%,25%,8%,22%,0%,5%,-2.6%
CS(=O)(=O)N1CCC(C(=O)Nc2ccc(F)cc2)CC1,0%,-3%,·,-8%,-4%,·,·,·
CCN(CCCNC(=O)Cn1cc2c(n1)CCCC2)c1cccc(C)c1,-2%,0%,·,?,-22%,·,1%,-3.0%
O=C(O)C1=C(C(=O)N2CCN(C(=O)c3ccco3)CC2)CCCC1,-11%,6%,2%,-3%,-11%,-19%,3%,3.9%
CSCCC(N=Cc1c(O)n(-c2ccc(F)cc2)c(=O)[nH]c1=O)C(=O)OC(C)(C)C (stereo not given),9%,11%,0%,1%,6%,-7%,2%,-0.8%
FC(F)(F)c1ccccc1N1CC1c1ccncc1 (stereo not given),7%,-2%,·,?,1%,·,·,·
Cc1cc(OCCOCCN(C)CCO)cc(C)c1Cl,-12%,-1%,2%,-13%,5%,-9%,0%,-0.4%
# Continuation:
SMILES,RE007 growth inh,SARS PLpro yeast,LASV entry inh,StopGo reporter,NS1 function inh,Marburg entry inh,Cruzain noTriton,Cruzain Triton
O=c1[nH]c(C2CCN(S(=O)(=O)c3cccc(Cl)c3)CC2)nc2c1nnn2Cc1ccccc1,-2%,5%,?,?,25%,-29%[46.1 µM],·,·
O=C(Nc1ccc(O)c(C(=O)O)c1)c1ccc2c(c1)C(=O)N(CC1CCCO1)C2=O (stereo not given),-3%,-4%,1%,-10%,4%,-2%,-4%,1.7%
CCOC(=O)c1c(-n2cccc2)sc2c1CCCC2=O,-15%,-10%,-25%,-29%,-14%,-33%,-6%,-8.5%
Cc1sc(NC(=O)CSc2nnc(COc3ccc(Cl)cc3)n2C)c(C#N)c1C,-12%,9%,-17%,0%,6%,?,25µM*,0.5%
Cc1ccc(CNC(=O)Cn2nnc(C(=O)Nc3cc(C)ccc3C)c2N)cc1,-16%,?,?,-6%,-10%,-1%[46.1 µM],·,·
